High-throughput results: PubChem, several laboratories
BJeLR lethal = kills HRASV12-expressing BJeLR cells; inhibition, % (concentration not given with the values); AID 1554; 300,000 tested, 0.17% active; BJeLR (HRASV12) viability, CellTiter-Glo ATP luminescence, 48 h; reference of the scale not given here;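 active means replicate mean above 50%; inconclusive means above 50% but judged a plate artefact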;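 further: 50 nL library stock added to about 25 µL; numbers are from one replicate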
Sa RN4220 lethal = S. aureus RN4220 growth inhibition; OD600, 16 h; inhibition, % (no concentration beside the values); 330,000 tested, 0.33% active;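 active means z-score of -3 or lower and OD600 up to 0.18 on both plates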;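 further: plate controls were untreated cells for no effect and reference antibiotic for full effect; stock transfer was 100 nL into about 80 µL; one replicate is shown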
Autofluor counter = flagged as autofluorescent in microsphere protease counterscreen | compound autofluorescence counterscreen, microsphere flow cytometry; hits give high values | fluorescence intensity (concentration not given with the values) | 360,000 tested, 3.1% active | AID 624483;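 active means at least 3 SD above the mean of all compounds, about 16000 in these data; inconclusive means too few beads counted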;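 further: 100 nL of 1 mM stock went into each well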
PrP 5UTR inh = suppresses PrP 5' UTR mRNA reporter expression | cell-based PrP 5' UTR mRNA reporter, plate reader | inhibition, % (no concentration beside the values) | 340,000 tested, 0.35% active;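 active means every replicate at 50% or more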;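 further: 0 = median of the neutral control wells; tested in H4 reporter cells; numbers are from one replicate; inactives centre near -14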
Mtb hypoxia inh = Mtb hypoxia fluorescent reporter inhibition; M. tuberculosis hypoxia-regulated fluorescent reporter, fluorescence; fluorescence inhibition, % (no concentration beside the values); 300,000 tested, 0.1% active;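 active means 35 to 45% if threefold the growth effect, above 45% if 1.5-fold the growth effect; inactive means the rest, general growth blockers included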;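 further: wells of about 50 µL received 100 nL stock; 0% = vehicle wells and 100% = reference inhibitor wells; whole bacteria with a GFP reporter of the hypoxia response; strong numbers were not always called active; many hits fall short of the cut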
ugtP null kill = kills S. aureus RN4220 lacking UgtP. S. aureus RN4220 ugtP deletion, OD600 growth, 16 h; some inactives read as strong as hits. growth inhibition, % (no concentration beside the values). 330,000 tested, 0.54% active;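 active means z-score under -3 and OD600 up to 0.15 on both plates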;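 further: plate controls were untreated wells for no effect and antibiotic for full effect; wells of about 80 µL received 100 nL stock; the first replicate is given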
Mtb hypoxia inh growth = also measured in Mtb hypoxia inh; calls as there; growth inhibition, %; measured here: M. tuberculosis growth (absorbance);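 0% = vehicle and 100% = reference antibiotic; read after six days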
* = called active by the depositor; ? = inconclusive; / = not tested or not shown.

SMILES	BJeLR lethal	Sa RN4220 lethal	Autofluor counter	PrP 5UTR inh	Mtb hypoxia inh	Mtb hypoxia inh growth	ugtP null kill
CC(C)(C)SCCNC(=O)CSCc1ccc([N+](=O)[O-])cc1	-17	-3.0	3408	-1	/	/	7
O=C(NNc1c(Cl)cc(Cl)cc1Cl)c1n[nH]c(=O)c2ccccc12	0	2.7	3222	-1	-4	-5	2
COc1cccc(NC(=O)c2ncn[nH]2)c1	1	9.4	3469	-9	1	0	1
O=C(NCCN1CCc2ccccc2C1)C1CCN(S(=O)(=O)N2CCC3(CC2)OCCO3)CC1	-6	1.7	9982	-15	-1	9	2
Cn1cccc1/C=C1\SC(=Nc2ccc(O)cc2)NC1=O	62*	4.2	3927	69*	2	0	-2
COc1ccccc1C(=O)NNC(=O)c1ccc(NC(=O)CC(C)C)cc1	-1	5.3	4013	-3	6	9	1
COC(=O)CC1NC2CCCCC2NC1=O (stereo not drawn)	14	1.7	4635	3	/	/	-3
CSc1nc(N(C)NC(=O)c2ccc(Cl)cc2)c2ccccc2n1	17	8.7	2494	24	22	13	-5
O=C1NC(=O)c2cc(Oc3ccc([N+](=O)[O-])cc3)ccc21	1	4.1	3346	-28	1	3	2
NC(=O)c1ccc(NC(=O)CNC(=O)c2sc3ccccc3c2Cl)cc1	/	-1.3	6144	0	-6	-5	-1
CCCCN1C(N)=NCC1CCCCN (stereo not drawn)	/	4.8	/	/	4	4	-2
COc1ccc(CCNC(=O)Cc2ccsc2)cc1	-7	0.2	6113	-8	-4	-2	1
CCOC(=O)c1c(C)[nH]c(C)c1S(=O)(=O)NCCCN1CCOCC1	7	1.8	5659	-22	12	5	2
Cc1ccc(NC(=O)c2ocnc2C)cc1Cl	6	2.5	7998	-42	8	10	-6
COc1ccc(C=NNC(=O)c2ccccc2[N+](=O)[O-])cc1COc1c(F)c(F)c(F)c(F)c1F	/	-0.7	/	/	0	-11	15
FC(F)(F)c1cc(N2CCNCC2)c2ccccc2n1	4	3.3	4201	5	-4	1	2
COc1ccccc1NC(=O)CSc1nc2ncccc2[nH]1	-4	4.0	10004	-6	-5	-3	1
O=C(CSc1nnnn1Cc1ccccc1)c1ccc(F)cc1	-4	4.0	4623	3	-9	7	-2
CCCCCNc1nc2sc3c(c2c(=O)n1-c1cccc(Cl)c1)CCN(C)C3	-3	1.1	7508	-12	-16	-9	3
COc1cccc(N=Nc2c(C)[nH]n(-c3ccccc3)c2=O)c1	-2	2.4	3478	-48	4	9	-9
COc1ccccc1NC(=O)CN1CCN(c2ccccc2)CC1	16	1.1	3549	-7	1	6	16
O=C(c1ccc(CS(=O)(=O)c2ccc(Br)cc2)o1)N1CCOCC1	1	4.4	4193	-17	/	/	8
Cc1cc(C)n(-c2ccc(C(=O)OCC(=O)Nc3cc(Cl)ccc3[N+](=O)[O-])cc2)n1	-1	6.9	2042	-5	1	0	13
Cc1csc(NC(=O)CSc2nc3sc(C)c(C)c3c(=O)[nH]2)n1	3	6.1	3198	-2	0	7	5
CC(CC(=O)NCc1ccco1)=NNC(=O)c1ccc(Cl)cc1Cl	/	7.0	/	/	3	-4	6
CCn1nc(CC(C)C)cc1C(=O)N1CCCC(Nc2ccc(F)cc2)C1 (stereo not drawn)	5	1.2	5520	-3	1	7	-4
Cc1cccc(NC(=O)NCCCCc2ccccc2)c1	8	0.0	4366	-4	10	-10	4
COc1ccccc1CN1CCN(Cc2nc(-c3cccs3)no2)CC1	4	/	5266	-17	/	/	/
N=C(N)N1CCc2ccccc21	0	3.6	6118	-19	-4	-9	8
O=C(CN1C(=O)/C(=C/c2ccccc2F)Sc2ccccc21)NCc1cccnc1	-2	4.5	1998	-8	13	9	6
COc1ccc(CCNC(=O)C2CCCN2C(=O)Nc2ccccc2)cc1OC (stereo not drawn)	-7	5.0	3911	-48	6	-10	12
Cc1ccc(Nc2nc3ccccc3s2)cc1	-8	-7.3	1925	-89	-2	3	3
Cn1cc(CNC(=O)c2cc(-c3ccccc3)nc3ccc(Br)cc23)cn1	9	2.1	2158	-9	5	15	-5
N=c1c(C(=O)NCc2ccco2)cc2c(=O)n3ccccc3nc2n1CC1CCCO1 (stereo not drawn)	-4	3.1	2436	-21	/	/	-1
CN(C)c1cccc2c1c(NC(=O)Nc1ccc(F)cc1F)nn2C	0	6.7	3806	-7	9	4	14
O=C(CCc1ccccc1)NN=Cc1cc2c(cc1Br)OCO2	/	-4.9	/	/	5	8	-7

Complete entries, quoted from the list:
`COc1ccc(CCNC(=O)C2CCCN2C(=O)Nc2ccccc2)cc1OC` (stereo not drawn) is listed as BJeLR lethal: -7; Sa RN4220 lethal: 5.0; Autofluor counter: 3911; PrP 5UTR inh: -48; Mtb hypoxia inh: 6; Mtb hypoxia inh growth: -10; ugtP null kill: 12
`COc1cccc(N=Nc2c(C)[nH]n(-c3ccccc3)c2=O)c1` is listed as BJeLR lethal: -2; Sa RN4220 lethal: 2.4; Autofluor counter: 3478; PrP 5UTR inh: -48; Mtb hypoxia inh: 4; Mtb hypoxia inh growth: 9; ugtP null kill: -9
`CSc1nc(N(C)NC(=O)c2ccc(Cl)cc2)c2ccccc2n1` is listed as BJeLR lethal: 17; Sa RN4220 lethal: 8.7; Autofluor counter: 2494; PrP 5UTR inh: 24; Mtb hypoxia inh: 22; Mtb hypoxia inh growth: 13; ugtP null kill: -5

Following part
SMILES	BJeLR lethal	Sa RN4220 lethal	Autofluor counter	PrP 5UTR inh	Mtb hypoxia inh	Mtb hypoxia inh growth	ugtP null kill
Cn1cnnc1SCC(=O)c1cc2ccccc2oc1=O	-1	1.7	9817	-4	10	-3	2
CCOc1ccccc1NC(=O)Cn1nnc(C(=O)NCc2ccco2)c1N	44	12	2338	49	/	/	10
Cc1ccccc1N1C(=O)Cc2ccccc2C1=O	-3	1.1	5823	4	3	-3	3
COc1cc(C(c2nnnn2C2CCCC2)N2CCc3ccccc3C2)ccc1O (stereo not drawn)	-2	9.8	2186	8	/	/	9
Cc1cc(N2C(=O)c3ccccc3C2=O)n(C)n1	6	-1.9	4039	-21	4	2	4
COc1cc(/C=C2\Oc3cc(O)ccc3C2=O)ccc1O	-5	1.2	5969	-48	/	/	10
CC(=O)N1c2ccc(S(=O)(=O)N3CCC(C(=O)N4CCCC(C)C4)CC3)cc2CC1C (stereo not drawn)	-11	1.1	5112	4	3	-2	3
O=C(Nc1cccc(-c2nnn(CC(=O)N3CCc4ccccc4C3)n2)c1)C1CCC1	9	0.9	5541	-19	15	4	-1
Cc1nc(NCCCO)c(C#N)c2c1COC(C)(C)C2	-6	1.7	8740	-12	8	13	1
S=c1nc(-c2sccc2OCc2ccc(Cl)cc2Cl)[nH][nH]1	1	9.1	4127	-26	11	2	-11
O=C(CCc1ccccc1)NNC(=S)NC(=O)c1ccc(Cl)cc1	1	51	/	/	7	5	8
S=C(NCc1ccc(Cl)c(Cl)c1)Nc1ccc2c(c1)OCO2	-9	-3.0	8289	-18	13	2	-2
O=C(OC(C(=O)NC1CCCC1)c1ccc(F)cc1)c1ccno1 (stereo not drawn)	-13	5.2	8031	-13	11	6	7
Cc1ccc(OCc2cc(C(=O)N3CCN(C4CCCC4)CC3)no2)cc1C	-11	-0.6	5129	-25	8	13	6
CCc1cccc(OCC(=O)Nc2ccccc2N2CCCC2)c1	-7	5.0	6028	-8	6	0	9
COc1ccc(CCNC(=O)CCNC(=O)c2ccc(Cl)cc2)cc1OC	1	5.3	2190	-9	21	1	4
CCOC(=O)C(Cc1c(F)cccc1Cl)c1ccno1 (stereo not drawn)	-6	0.0	3242	-10	0	-6	6
O=C(C1=C(Nc2ccccc2)c2ccccc2S(=O)(=O)N1)c1ccccc1	-3	/	2517	-35	/	/	/
C/C(=C\c1ccccc1)C(=O)Nc1ccc(Cl)cn1	10	5.3	3761	-72	-1	6	2
COC(=O)C1=C(c2ccc(F)cc2OCc2ccccc2)CC2CCC1N2C(=O)NCc1ccco1 (stereo not drawn)	/	7.2	/	/	7	5	20
O=C(CN1C(=O)NC(c2ccccc2)(c2ccccc2)C1=O)N1CCOCC1	/	2.3	8755	-13	5	8	2
CC(=O)OCC1OC(n2cc(F)c(=O)[nH]c2=O)C(OC(C)=O)C1OC(C)=O (stereo not drawn)	-5	3.1	3728	-83	7	12	3
CC(C)(C)NC(=O)c1ccc(Cn2cc(C(F)(F)F)ccc2=O)cc1	3	1.5	4213	-18	6	-5	1
CC(C)NC(=O)Cc1ccc(Br)cc1	0	2.9	3866	-27	10	12	-2
Cc1cccc(OCC(=O)NCCCNC(=O)c2cnccn2)c1	3	0.5	3081	5	4	3	7
COc1cc(/C=C(\C#N)c2nc3c(s2)CC(C)CC3)ccc1O (stereo not drawn)	-11	7.9	16053	-98	-2	2	82
CC1=NNC(=O)C1CCC(=O)N/N=C(/C)c1ccc([N+](=O)[O-])cc1 (stereo not drawn)	-11	/	1998	-4	/	/	/
CCOC(=O)CN(C#N)c1nc(C)cc(C)n1	-1	0.5	3753	13	8	5	0
O=C1CCC(C(=O)N(Cc2cccs2)C2(C(=O)NC3CCCCC3)CCCCC2)N1 (stereo not drawn)	/	20	4168	-17	5	11	1
Cc1ccn2c(=O)nc(SCC(=O)N3CCC(Cc4ccccc4)CC3)nc2c1	4	1.9	6185	-5	0	-1	-5
CC1(C)Cc2cccc(OCC(=O)OCC(=O)Nc3ccccc3)c2O1	-1	-0.5	5676	-11	-1	1	-3
C=CCc1cccc(/C=N/n2c(C)nnc2C)c1O	-2	/	3297	-11	/	/	/
Cc1cc(C(=O)CSc2cccc[n+]2[O-])c(C)n1-c1ccc(Br)cc1	16	-1.4	/	/	-2	6	2
COc1ccc(CCNC(=O)CSc2nc(-c3ccc(OC)c(OC)c3)ccc2C#N)cc1	8	4.7	2007	-26	7	20	-3
CCOC(=O)c1ccc2[nH]c3c(c2c1)CCCCC3=O	2	-4.1	12626	2	1	2	-8
O=C(CNCc1cccs1)NC12CC3CC(CC(C3)C1)C2	5	-2.0	4622	-32	11	12	5
CC(C(=O)Nc1ccc(C#N)cc1)N(C)Cc1cccs1 (stereo not drawn)	6	-2.8	4190	-11	8	7	14
COc1ccccc1NC(=O)N1CCCC1C(=O)NCC1CCCO1 (stereo not drawn)	-1	0.2	2321	-3	-19	2	3
Cc1nc(SCC(=O)c2ccccc2)c([N+](=O)[O-])[nH]1	-12	5.8	5406	-28	0	10	-3
CC(SCc1ccccc1)C(=O)Nc1ccc2c(c1)OCO2 (stereo not drawn)	-4	23	16775*	-9	6	3	4
O=C(CC1SC(N2CCCCC2)=NC1=O)Nc1ccc(C(=O)Nc2ccccc2)cc1 (stereo not drawn)	4	-0.6	?	-29	6	4	8
O=C(NCCCNC(=O)c1ccccn1)c1ccc(Cl)cc1	-11	3.0	5501	11	-2	2	1
O=C1CCCCN1CCC(=O)N1CCCC(N2CCN(c3cccc(Cl)c3)CC2)C1 (stereo not drawn)	-18	1.6	5880	-20	11	3	5
CC(C)C(CO)Nc1nc(Nc2ccc(Cl)c(C(=O)O)c2)c2ncn(C(C)C)c2n1 (stereo not drawn)	/	3.3	/	/	14	6	7
COc1ccccc1-n1c(SC)nc2c(sc(=S)n2-c2ccccc2)c1=O	11	-2.7	3225	-11	7	8	45
COc1ccc(Cc2nc3ccc(C(=O)NCC4CCOCC4)cc3o2)cc1OC	-4	5.5	5405	-31	9	2	7
C=CCN(CC=C)C(=O)c1ccc(OC2CCN(S(=O)(=O)N(C)C)CC2)cc1	3	7.2	4344	-41	0	-6	5
COc1ccccc1N(CC(=O)N/N=C(\C)c1ccccc1O)S(=O)(=O)c1ccc(C)cc1	7	/	3460	-13	/	/	/
CCOc1ccccc1C(=O)Nc1ccc(C(=O)c2ccccc2)cc1	7	1.0	4081	-39	-3	0	9
CC(=O)Nc1ccc(N2C(=O)CSC2c2cccc([N+](=O)[O-])c2)cc1 (stereo not drawn)	-1	2.3	5248	-23	13	2	5
N#Cc1ccc(NC(=O)CN2CCN(c3ccccn3)CC2)cc1	-5	1.4	3637	0	0	1	5

Filtered by structure: those above with a CF3 group
SMILES	BJeLR lethal	Sa RN4220 lethal	Autofluor counter	PrP 5UTR inh	Mtb hypoxia inh	Mtb hypoxia inh growth	ugtP null kill
FC(F)(F)c1cc(N2CCNCC2)c2ccccc2n1	4	3.3	4201	5	-4	1	2
CC(C)(C)NC(=O)c1ccc(Cn2cc(C(F)(F)F)ccc2=O)cc1	3	1.5	4213	-18	6	-5	1
